LT uptake inh: inhibitors of anthrax lethal toxin internalization; Potency, µM (top dose mostly 40 µM), without a hit: at the highest dose activity change, negative = inhibition, most hits filed as inhibitors; hit rate 0.67% among 70,000; Cells, anthrax lethal toxin internalization, FRET ratio (460/530); active = well fitted falling ratio curve with the 530 nm signal flat; inconclusive = other ratio curves, or a change in one channel alone; inactive = flat curves in the ratio and both channels; the % refers to the ratio; further: on the % scale 0 is the no-effect control and ±100 the full control effect; nearly all actives have a fitted effect of over 50% in size; tested in ME-180 cells; beta-lactamase reporter
SmPrx2 inh: inhibitors of Schistosoma mansoni peroxiredoxin 2 | Potency, µM | S. mansoni Prx2 activity coupled to TGR/GSH (TGR is thioredoxin glutathione reductase), NADPH fluorescence loss, qHTS; some inactives read as strong as hits | hit rate 0.07% among 65,000; active means full or partial inhibition curve with a strong effect at the top dose; inconclusive means weaker partial or single-point curve; inactive means no accepted curve; further: series up to 57 µM; many of its hits are not listed in these tables
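Purified S. mansoni TGR and Prx2 in pH 7.4 phosphate buffer with EDTA and Tween-20 were preincubated with compounds for 15 min. Further NADPH/GSH was added, then a 2.5 mM H2O2 aliquot initiated turnover, followed kinetically by NADPH fluorescence.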
The depositor's hits bear a star; ? = inconclusive; . = not tested or not shown; & = joins results of further samples; [ ] = remark or other dose. Potency means the concentration at half of the fitted maximal effect. Only part of the results is shown. The share of hits here may be higher or lower than overall.

Results follow in this order: LT uptake inh | SmPrx2 inh
- CC1(C)CC(=O)C2=C(C1)Nc1ccccc1NC2c1ccccn1 (configuration not stated)
    0% | >57
- [O-][N+]1=C2CCC/C(=N\O)C2=NC12CCCCC2
    19% | >57
- NC(=O)c1cccc2c3c([nH]c12)CCCC3
    -15% | >57
- O=C(CN1C(=O)C2C3C=CC(C3)C2C1=O)NC1CCCc2ccccc21 (configuration not stated)
    12% | >57
- CC(C)Cn1cc(C(=O)N2CCC3(CC2)OCCO3)c2c3ccccc3n(C)c2c1=O
    12% | >57
- O=C(O)CCSCc1ccc(I)cc1
    1%[8 µM] | >57
- Cn1cc(-c2nc3cnc(N4CCNCC4)nc3n(CCC#N)c2=O)c2ccccc21
    ? | >57
- CO[C@@H]1/C=C\O[C@]2(C)Oc3c(C)c(O)c4c(O)c(c(CN5CCN(C)CC5)c(O)c4c3C2=O)NC(=O)/C(C)=C\C=C[C@@H](C)[C@@H](O)[C@H](C)[C@@H](O)[C@H](C)[C@H](OC(C)=O)[C@@H]1C
    -5%[8 µM] | >57
- COc1ccc2nc(NC(=O)c3ccc(-n4nc(C)cc4C)cc3)sc2c1
    -20% | >57
- Cc1nnc(SCCn2c(N3CCCCC3)nc3c2c(=O)[nH]c(=O)n3C)s1
    4% | >57
- O=C(NCCCNC(=O)c1cccs1)c1cccs1
    -1% | .
- O=C(NCc1ccc2c(c1)OCO2)c1nnc(Cc2ccc(Cl)cc2)o1
    -3% | >57
- C=C(C)CN1CC[C@@]23c4c5ccc(O)c4O[C@H]2c2[nH]c4ccccc4c2C[C@]3(O)[C@@H]1C5
    ? | >57
- Cc1cc(C)n2cc(CSc3nnnn3-c3ccc(Cl)cc3)nc2n1
    6% | >57
- CN(C(=O)Cn1c(=O)n(CCCCC(=O)NC2CCCC2)c(=O)c2ccccc21)C1CCCCC1
    6% | >57
- CC(=O)CSc1nnc(CSc2ncccn2)n1C1CCCCC1
    -6% | >57
- Cc1cccc(N(C)S(=O)(=O)c2ccc3[nH]cc(C(=O)N4CCOCC4)c(=O)c3c2)c1
    0% | >57
- CC1Cc2ccccc2N1C(=O)COc1nc2ccccc2nc1N1CCOCC1 (configuration not stated)
    3% | >57
- C/C(=N\O)C(=O)NCCN1CCCCC1
    -2% | >57
- COc1ccc2[nH]c(=O)c(CN(Cc3ccc4c(c3)OCO4)C(C)=O)cc2c1
    14% | >57
- COc1ccc(-c2csc(C3=C(O)CN(Cc4ccc(S(N)(=O)=O)cc4)C3=N)n2)cc1OC
    3% | >57
- O=C(NCC1CCCO1)c1nnc(Cc2ccc(F)cc2)o1 (configuration not stated)
    17% | >57
- CCOC(=O)C1CCN(C(=O)C2c3ccccc3C(=O)N(C)C2c2ccc(OC)cc2)CC1 (configuration not stated)
    -5% | >57
- Cc1ccc(C(=O)CC(C(=O)O)c2cn(CCC#N)c3ccccc23)cc1 (configuration not stated)
    5% | >57
- CCOC(=O)N1CCN(C(=O)c2cn(CCOC)c(=O)c3c2c2ccccc2n3C)CC1
    -12% | >57
- O=C(NCCN1CCOCC1)c1ccc2c(c1)N(Cc1ccccc1)CCS2
    -19% | >57
- Cc1nc(S(=O)(=O)N(C)Cc2ccccc2)c(C#N)c(C)c1Cl
    -28% | >57
- Cc1cccc(OCC(=O)Nc2ccccc2N2CCN(C(=O)C(C)C)CC2)c1C
    11% | >57
- Cn1c(=O)c2c(-c3ccncc3)c3c(nc2n(C)c1=O)-c1ccccc1C3=O
    9% | >57
- CCOC(=O)C1CCCN(C(=O)c2cc(=O)c3ccccc3o2)C1 (configuration not stated)
    -3% | >57

Some of these compounds in order of formula weight, highest first.
Results follow in this order: LT uptake inh | SmPrx2 inh
- COc1ccc(-c2csc(C3=C(O)CN(Cc4ccc(S(N)(=O)=O)cc4)C3=N)n2)cc1OC
    3% | >57
- CCOC(=O)C1CCN(C(=O)C2c3ccccc3C(=O)N(C)C2c2ccc(OC)cc2)CC1 (configuration not stated)
    -5% | >57
- Cc1cccc(OCC(=O)Nc2ccccc2N2CCN(C(=O)C(C)C)CC2)c1C
    11% | >57
- Cn1c(=O)c2c(-c3ccncc3)c3c(nc2n(C)c1=O)-c1ccccc1C3=O
    9% | >57
- O=C(NCC1CCCO1)c1nnc(Cc2ccc(F)cc2)o1 (configuration not stated)
    17% | >57

Remaining list, next part
Results follow in this order: LT uptake inh | SmPrx2 inh
- COCCn1c(=N)c(C(=O)NCCc2ccc(OC)cc2)cc2c(=O)n3cccc(C)c3nc21
    12% | >57
- CCN(CC)c1ccc(NC(=O)c2cccc(OC)c2)c(C)c1
    -23% | >57
- Cc1c2cccn2cc[n+]1C
    -8% | >57
- CCOC(=O)C(NC(C)=O)(Nc1cccc(F)c1)C(F)(F)F (configuration not stated)
    . | >57
- CCOC(=O)CCCCNCc1ccccc1
    -4% | >57
- CCOc1cc(C)nc(N2CCCC(C(=O)NCc3ccccc3F)C2)n1 (configuration not stated)
    -12% | >57
- Cn1cccc1Cc1nnc(SCC(=O)NCc2ccc3c(c2)OCO3)n1CCc1ccccc1
    -6% | ?
- C=CCn1c(-c2ccc(Cl)cc2)c[nH]c1=S
    -14% | >57
- NCCCCCC(=O)O
    -3%[3.58 µM] | >57&>26
- Nc1nc(NCc2ccco2)nn1-c1ccccc1
    . | >57
- O=C(O)CCN(CCC(=O)O)c1ccccc1
    ? | >57
- Cc1ccc(C(=O)N2CCN(S(C)(=O)=O)C2)cc1
    -7% | >57
- CN1CCN(S(=O)(=O)c2ccc(-c3noc(C4CCN(S(C)(=O)=O)CC4)n3)cc2)CC1
    4% | >57
- C=C(C)CSc1nnc(-c2cccc(S(=O)(=O)N(C)C)c2)n1-c1cc(OC)ccc1OC
    -26% | >57
- O=C(CC1N=C2c3ccccc3N=C(SCc3ccc(Cl)cc3)N2C1=O)NCc1ccco1 (configuration not stated)
    ? | >57
- CCOc1ccc(N(CC(=O)Nc2cccc(F)c2)S(=O)(=O)c2c(C)noc2C)cc1
    ? | >57
- O=c1oc2ccc3ccccc3c2cc1-c1nnc(-c2ccccc2)o1
    -9% | >57
- COCCn1c(=NC(=O)c2ccc3c(c2)OCO3)c(C#N)cc2c(=O)n3cccc(C)c3nc21
    -1% | >57
- N#C/C(=C1\CCCN1)c1nc2ccccc2c(=O)[nH]1
    -8% | >57
- CC(Oc1ccc(Cl)cc1Cl)C(=O)Nc1ccc2oc(-c3ccncc3)nc2c1 (configuration not stated)
    1% | >57
- O=C(Nc1nnc(C(F)(F)F)s1)c1cccnc1
    8% | >57
- CC(=O)NCCN=C(C)c1sc2ccccc2c1O
    -1% | >57
- COc1ccc(-c2c(C)n([O-])c(C)c(C)[n+]2=O)cc1OC
    -1% | >57
- CCOC(=O)C1CCN(Cc2ccc(C(=O)OC)cc2)CC1
    0% | >57
- COC(=O)c1[nH]cnc1C(=O)c1ccccc1
    ? | >57
- N[C@@H](C(=O)O)c1cc(O)ccc1Cl
    ? | >57
- CCOC(=O)C1CCN(C(=O)Nc2ccc(NC(=O)C3CCN(C(=O)OCC)CC3)cc2)CC1
    18% | >57
- N#CC1=C(N)N(c2ccccc2C#N)C2=C(C(=O)CCC2)C1c1ccsc1 (configuration not stated)
    8% | >57
- O=C(Nc1ccn(C2CC(OC(=O)c3ccccc3)C(CO)O2)c(=O)n1)c1ccccc1 (configuration not stated)
    0% | >57
- COc1ccc(C2CC(c3ccccc3)n3nc(NC(=O)c4cccs4)nc3N2)cc1 (configuration not stated)
    ? | >57
- O=C(Cn1cnc2c(nnn2-c2ccc(F)cc2)c1=O)N1CCCC1
    3% | >57
- CCN(CC)S(=O)(=O)c1cccc(C(=O)NC(C(=O)Nc2nnc(C3CC3)s2)C(C)C)c1 (configuration not stated)
    -13% | >57
- Cn1cccc1C(=O)N1CCC2(CC1)CN(c1ccccn1)C2
    6% | >57
- COc1cc(NC(=O)Cn2ncc3c2-c2ccccc2OC3)cc(OC)c1OC
    -8% | >57
- Cc1ccnc(SCCn2c(N3CCOCC3)nc3c2c(=O)[nH]c(=O)n3C)n1
    3% | >57
- O=C(NCCN1CCN(c2ccccc2)CC1)C1CCN(S(=O)(=O)c2cccs2)CC1
    -3% | >57
- CCOC(=O)c1c(C)[nH]c(C(=O)COC(=O)C2CC2C)c1C (configuration not stated)
    4% | >57
- CCCS(=O)(=O)N1CCC(C(=O)NCCc2ccccc2)CC1
    -5% | >57
- O=C(Nc1ccc(N2CCOCC2)cc1)Nc1cnsn1
    -4% | >57
- O=C(CSc1nnc(Cc2cccs2)n1-c1ccccc1)Nc1ccc2c(c1)OCCO2
    ? | >57
- COc1ccccc1C(=O)OCC(=O)Nc1ccc(OC(F)F)cc1
    6% | >57
- Cc1noc(C)c1-c1cc(NCc2ccccc2)ncn1
    10% | >57
- Cc1cc(=O)oc2cc(OC3C=CC(C#CC(C)(C)C)OC3CO)ccc12 (configuration not stated)
    -21%[8 µM] | .
- COCc1cc(C)c(C#N)c(=S)[nH]1
    6% | >57
- CCOC(=O)CSc1nnc(-c2nnc(SCC(=O)OCC)n2CC)n1CC
    -7% | >57
- O=C(Nc1ccc(Br)cc1F)c1sccc1-n1cccc1
    -12% | >57
- O=C(Cc1cccs1)Nc1ccon1
    -3% | >57
- CCCCNC(=O)c1c(C)cc(=O)oc1C
    0% | >57
- COC(=O)c1ccc(-n2nnnc2SCC(=O)Nc2cc(OC)ccc2OC)cc1
    7% | >57
- O=S(=O)(c1ccc(S(=O)(=O)N2CCCN(Cc3ccccc3)C2)cc1)N1CCCCCC1
    -13% | >57

More compounds:
Results follow in this order: LT uptake inh | SmPrx2 inh
- CCN1CCN(C(c2cc3cccc(C)c3[nH]c2=O)c2nnnn2Cc2ccccc2)CC1 (configuration not stated)
    6% | >57
- O=C1[C@H]2[C@H]3[C@H](O)[C@H](O)C/C(=N/OC[C@@H](O)COCc4ccco4)[C@@H]3CC[C@@H]2C(=O)N1Cc1ccc2c(c1)OCO2
    ? | .
- O=C(CCCn1c(=S)[nH]c2ccsc2c1=O)NCc1ccco1
    ? | >57
- O=C(NCCc1ccccc1)C1CCCN1C(=O)Nc1ccc(F)cc1 (configuration not stated)
    2% | >57
- COc1cccc(-c2nn(C)c3sc(C(=O)NCc4ccco4)cc23)c1
    -12% | >57
- Cn1c(SCC(=O)NC2CCCC2)nc2cccnc21
    -18% | >57
- Cc1ccc2[nH]c(=O)c(C(c3nnnn3CC3CCCO3)N3CCCc4ccccc43)cc2c1 (configuration not stated)
    ? | >57
- CS(=O)(=O)N(CC(=O)NCc1ccccn1)c1ccc2c(c1)OCCO2
    -5% | >57
- Cc1ccc(CNC(=O)COC(=O)c2c(C)noc2C)cc1
    8% | >57
- O=C(Nc1ccccc1C(=O)OCn1nnc2ccccc2c1=O)c1ccco1
    -1% | >57
- CCOC(=O)N1CCN(C2=NC3(CCCCC3)C(C#N)C(=O)N2)CC1 (configuration not stated)
    ? | >57
- Clc1ccccc1OCCN1CCCCC1
    -22% | .
- CS(=O)(=O)N1CCC2(CC1)CN(Cc1ccncc1)C2
    -17% | >57
- Cc1ccc(-n2nnnc2SCC(=O)NCCC2=CCCCC2)c(C)c1
    -16% | >57
- C=C(C)CCl
    ? | .
- O=C(O)c1ccc(NCc2ccc3c(c2)OCO3)cc1
    -2% | >57
- CCCSc1nnc(N2C(=O)CC(c3ccsc3)C3=C2CCCC3=O)s1 (configuration not stated)
    -25% | >57
- COc1ccc(OC)c(C2C(C#N)=C(N)Oc3c2c(C)nn3-c2ccc(C)cc2)c1 (configuration not stated)
    -19% | >57
- O=S(=O)(c1cccs1)N1CCN(c2ncccn2)CC1
    -4% | >57
- Cc1ccc(-n2c(C)cc(C(=O)CSc3nnnn3C)c2C)cc1
    -15% | >57
- CCN(CC)CCNC(=O)c1cc(Br)c(N)cc1OC
    -3%[3.58 µM] | >57
- CCCCC(=O)c1c(O)c2ccccc2oc1=O
    -2% | >57
- O=c1c(-c2ccc3c(c2)OCCO3)coc2c(CN3CCOCC3)c(O)ccc12
    -18% | >57
- Cc1c(CN(C)C(=O)CSc2nc(-c3ccco3)cc(C(F)(F)F)n2)cnn1C
    11% | >57
- O=C1NCCN1C(=O)c1cccc(Cl)c1
    ? | >57
- O=C(NC(Cc1ccccc1)C(=O)NCc1ccccn1)c1ccco1 (configuration not stated)
    0% | >57
- Cc1ccc(CCNC(=O)CCNS(=O)(=O)c2ccc3c(c2)c(=O)n(C)c(=O)n3C)cc1
    2% | >57
- COc1ccc(-c2ccc(-c3noc(-c4ccccc4C)n3)c(OC)n2)cc1
    -8% | >57
- CCCCn1c(Cl)nc2c1c(=O)n(C)c(=O)n2C
    -5% | >57
- COc1ccc(OC)c(C2C(C(=O)N(C)C)=C(C)Nc3nc4ccccc4n32)c1 (configuration not stated)
    3% | >57
- O=C(CCCCn1c(=O)c2ccccc2n(Cc2ccc(Cl)cc2)c1=O)NCc1ccco1
    1% | >57
- O=C1CCCc2c1[nH]c1ccc(Br)cc21
    -2% | >57
- CCOc1ccc(C(=O)N2CCN(C(=O)c3ccco3)CC2)cc1OCC
    ? | >57
- COCCOCC(O)CN1CCN(c2ccccc2)CC1 (configuration not stated)
    -17% | >57
- Cc1cccc2c(=O)oc(-c3ccc4c(c3)C(=O)N(CC3CCCO3)C4=O)nc12 (configuration not stated)
    0% | >57

High-throughput results as filed in PubChem BioAssay.
